UUG fidelity – modulators of yeast start codon fidelity, primary screen, whole organism, S. cerevisiae, single point, plate reader. S. cerevisiae UUG-firefly luciferase reporter, luminescence/redox ratio. activity score, % at 18.7 µM. hit rate 0.13% among 350,000. AID 602363, 2012;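 active means replicate mean at a twofold rise or more, about +100% in these data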;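 further: firefly luciferase made from a UUG start codon reports start codon fidelity; reporter light over untreated wells divided by growth signal over untreated wells; some hits fall short of that in this replicate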
PABP polyA inh – PABP poly(A) RNA binding inhibitors, primary screen, biochemical, fluorescence polarization, uHTS | Polyadenylate-binding protein 1 (Homo sapiens), P11940 | inhibition, % at 35 µM | hit rate 1% among 290,000 | AID 2014, 2009;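 active means 50% or more with normal probe brightness, or confirmed in later tests; inconclusive means above 50% with abnormal brightness, or retests that disagree; inactive means below 50% or failed in later tests; about a fifth of its hits are not listed in these tables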;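 further: calls also rest on retests at 20 µM and on dose response follow-up; controls were probe without protein and protein plus probe with vehicle; some compounds called inactive have numbers as strong as hits; many hits fall short of the cut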
Target sequence (P11940 whole entry, looked up): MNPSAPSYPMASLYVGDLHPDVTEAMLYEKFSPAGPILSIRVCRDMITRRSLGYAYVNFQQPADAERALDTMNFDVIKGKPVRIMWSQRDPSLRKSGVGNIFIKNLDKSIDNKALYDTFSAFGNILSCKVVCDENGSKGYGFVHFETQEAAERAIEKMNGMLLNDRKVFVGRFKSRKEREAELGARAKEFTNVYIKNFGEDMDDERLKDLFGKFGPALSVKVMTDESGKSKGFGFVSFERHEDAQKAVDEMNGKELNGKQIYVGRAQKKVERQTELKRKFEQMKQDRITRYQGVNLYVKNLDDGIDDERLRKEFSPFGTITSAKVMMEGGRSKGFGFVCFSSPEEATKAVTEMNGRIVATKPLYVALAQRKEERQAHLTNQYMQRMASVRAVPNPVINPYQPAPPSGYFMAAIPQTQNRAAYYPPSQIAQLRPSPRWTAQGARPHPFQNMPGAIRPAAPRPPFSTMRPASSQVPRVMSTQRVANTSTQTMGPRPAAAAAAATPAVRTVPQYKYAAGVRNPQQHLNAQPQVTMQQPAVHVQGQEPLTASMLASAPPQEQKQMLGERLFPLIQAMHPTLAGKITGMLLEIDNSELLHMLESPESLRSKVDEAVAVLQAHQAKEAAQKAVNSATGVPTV
MT1-MMP act inh – blockers of MT1-MMP proenzyme processing, primary screen, HT1080 RFP-PRO-GFP cells, GFP/RFP fluorescence; Matrix metalloproteinase-14 (Homo sapiens), P50281; GFP/RFP ratio fluorescence, overnight; percent of plate control window, DMSO zero; GFP/RFP ratio change, % at 20 µM; hit rate 0.061% among 360,000; AID 651647, 2012;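 active means GFP/RFP ratio change of at least 30% with cell ATP level not reduced by more than half and red fluorescence within 50% of control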; further: strong numbers were not always called active
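Assay system: RFP-PRO-GFP reporter HT1080 cells; read-out basis: GFP/RFP fluorescence ratio; benchmarks: DMSO wells and RFP-L50D-GFP cells; doses: 20 µM single dose, 1% DMSO; schedule: overnight cell settling, then overnight compound exposure, 37 °C, 5% CO2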
eIF4H inh – human eIF4H binding inhibitors, primary screen, translation initiation inhibitor project, biochemical, uHTS, fluorescence polarization; eIF4H fluorescence polarization binding assay; inhibition, % at 35 µM; hit rate 0.94% among 290,000; Eukaryotic translation initiation factor 4H (Homo sapiens), Q15056;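 active means 50% or more with normal probe brightness, or confirmed in later tests; inconclusive means above 50% with abnormal brightness, or retests that disagree; inactive means below 50% or failed in later tests; about a fifth of its hits are not listed in these tables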;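 further: calls also rest on retests at 20 µM and on dose response follow-up; 0% = protein and probe with vehicle and 100% = probe without protein; strong numbers were not always called active; many hits fall short of the cut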
CSC inhib – cancer stem cell viability inhibitors, primary screen, luminescence | cancer stem cell-like cells viability | hit rate 1.1% among 300,000 | AID 2717, 2010 | inhibition, % at 7.5 µM;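 active means mean at 75% or more and at least half the replicates too; inconclusive means mean and replicates disagree; tested in HMLE shEcad cells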;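 further: 0% = median of negative and 100% = median of positive control wells; the first replicate is given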
Rce1 inh – yeast Rce1p protease inhibitors, primary screen, biochemical, fluorescence, cell-free homogeneous | CAAX prenyl protease 2 (Saccharomyces cerevisiae (strain ATCC 204508 / S288c)), Q03530 | yeast membranes, quenched prenylated peptide cleavage fluorescence | calls only | hit rate 0.27% among 290,000;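 active means fall in fluorescence gain of 50% or more versus controls, with final raw signal at or below 3038400; inconclusive means same 50% fall but final raw signal above 3038400; inactive means fall in fluorescence gain under 50%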;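 further: plate controls were neutral control wells for no effect and wells lacking membranes for full effect; tested at 10 µM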
HIV Env fusion – inhibitors of HIV-1 Env-driven cell-cell fusion, primary screen, HeLa-JRFL effector, CEM21 target cells, luciferase | hit rate 1.1% among 360,000 | inhibition, % at 12.3 µM;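 active means mean replicate inhibition score of at least 50 and every replicate individually at or above 50; inconclusive means only one of the two criteria met; inactive means mean below 50 and not all replicates reaching 50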;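 further: 0% = plate neutral controls and 100% = maraviroc near 300 nM; one replicate is shown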
eIF4H inh retest – second read-out of eIF4H inh, no call of its own (marks repeat the call); inhibition, %; compound at 20 µM; confirmation average;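 mean of two retest wells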
PABP polyA inh retest – further read-out of PABP polyA inh, marked with its call; inhibition, %; compound at 20 µM; confirmation repeats;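 mean of two retest wells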
MT1-MMP act inh RFP – also measured in MT1-MMP act inh; calls as there; RFP signal change, %; measured here: RFP expression control read;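 0 = vehicle wells; hits needed this value within 50% of zero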
Starred values were filed as active, the others as inactive; i = inactive; ? = inconclusive; / = no result given.

SMILES	UUG fidelity	PABP polyA inh	MT1-MMP act inh	MT1-MMP act inh RFP	eIF4H inh	CSC inhib	Rce1 inh	HIV Env fusion	others
Cc1ccc(S(=O)(=O)C(C#N)c2nc3ccccc3nc2N2CCN(C)CC2)cc1C (stereo not given)	-8	119*	-20	-10	122*	-3	i	17	eIF4H inh retest=99*;PABP polyA inh retest=97*
CCCOc1cccc(C2C(C(=O)c3ccc(C)o3)=C(O)C(=O)N2CCN2CCOCC2)c1 (stereo not given)	-15	10	-6	-1	0	3	i	17
Oc1ccc[n+](CCCCC[n+]2cccc(O)c2)c1	15	-5	1	5	-1	-7	i	-3
CCC(C)c1ccccc1NC(=O)COc1ccc(-n2cnnn2)cc1 (stereo not given)	-8	/	10	1	/	/	/	6
O=C(NCc1ccccc1F)Nc1ccc([N+](=O)[O-])cc1	/	-7	2	-1	-2	0	i	2
O=C(Oc1ccc2ccccc2c1)c1ccccc1	-14	9	0	4	0	-2	i	/
Nc1ccccc1OCCOc1ccccc1N	5	-6	-4	-5	-11	9	i	-15
CCOC(=O)c1cnn2c1[nH]c(=O)c1ccccc12	-16	-1	1	-5	-16	3	/	/
c1ccc2c(c1)nc(NCCN1CCOCC1)c1nncn12	-8	-9	3	4	-9	-8	i	0
CC(O)CCC(=O)NNC1=CC(=O)CC(C)(C)C1 (stereo not given)	/	-4	/	/	-5	-14	i	/
O=c1[nH]c2ccccc2nc1-c1c[nH]c2ccccc12	-6	30	-1	-1	16	0	i	-24
COc1ccc(-c2nn(CCC#N)cc2C(=O)Nc2ccccn2)cc1OC	-12	9	-3	-1	-4	-7	i	3
CC1CN(C(=O)Nc2cccc(Cl)c2)C2(CCCCCC2)O1 (stereo not given)	/	-8	2	5	0	4	i	4
O=C(NC(=S)Nc1ccc(S(=O)(=O)Nc2ncccn2)cc1)c1cccc(Br)c1	/	16	-2	1	13	-3	i	-3
S=C(Sc1ccc(Cl)cc1)Sc1ccc(Cl)cc1	/	3	/	/	0	77*	i	/
O=C(O)C1CCCCC1C(=O)Nc1ccccc1C(=O)N1CCN(c2ccc(F)cc2)CC1 (stereo not given)	-1	-16	4	1	9	-15	i	-18
CC1Cc2ccccc2N1CC(=O)NCc1ccccc1Cl (stereo not given)	-12	-20	-1	-1	-13	4	i	12
COc1ccc(Cl)cc1NC(=O)CN(C)C(=O)CN1C(=O)NC(C)(c2ccc3ccccc3c2)C1=O (stereo not given)	-7	/	9	1	/	/	/	10
CCOC(=O)C(CCCOc1ccccc1)C(=O)OCC	/	-9	2	-1	-1	-9	i	/
COC(=O)c1ccc(NC(=O)CCNS(=O)(=O)c2cccc3nonc23)cc1	14	-3	0	0	-1	/	i	5
COc1ccc(OCc2cccc(C(=O)Nn3cc([N+](=O)[O-])cn3)c2)cc1	-19	-1	4	-2	1	42	i	?
COc1ccc2c(c1OC)C(=O)OC2	0	25	3	7	2	-8	i	/
O=C(NCCc1ccccn1)c1ccc(OC(F)F)cc1	-23	-4	2	4	-6	-11	i	-43
CC(=O)Nc1ccc(S(=O)(=O)NC2(C(F)(F)F)C(=O)Nc3c2c(=O)[nH]c(=O)n3Cc2ccco2)cc1 (stereo not given)	/	-7	-5	2	1	-14	i	-11
CC(=O)Nc1cccc(N(C)C)c1	-9	-6	-1	1	-3	1	i	/

Arranged by count of non-hydrogen atoms (ascending): some entries from above.
SMILES	UUG fidelity	PABP polyA inh	MT1-MMP act inh	MT1-MMP act inh RFP	eIF4H inh	CSC inhib	Rce1 inh	HIV Env fusion	others
CC(=O)Nc1cccc(N(C)C)c1	-9	-6	-1	1	-3	1	i	/
COc1ccc2c(c1OC)C(=O)OC2	0	25	3	7	2	-8	i	/
S=C(Sc1ccc(Cl)cc1)Sc1ccc(Cl)cc1	/	3	/	/	0	77*	i	/
CCOC(=O)c1cnn2c1[nH]c(=O)c1ccccc12	-16	-1	1	-5	-16	3	/	/
O=c1[nH]c2ccccc2nc1-c1c[nH]c2ccccc12	-6	30	-1	-1	16	0	i	-24
O=C(NCCc1ccccn1)c1ccc(OC(F)F)cc1	-23	-4	2	4	-6	-11	i	-43
c1ccc2c(c1)nc(NCCN1CCOCC1)c1nncn12	-8	-9	3	4	-9	-8	i	0
CCC(C)c1ccccc1NC(=O)COc1ccc(-n2cnnn2)cc1 (stereo not given)	-8	/	10	1	/	/	/	6
COc1ccc(OCc2cccc(C(=O)Nn3cc([N+](=O)[O-])cn3)c2)cc1	-19	-1	4	-2	1	42	i	?
COC(=O)c1ccc(NC(=O)CCNS(=O)(=O)c2cccc3nonc23)cc1	14	-3	0	0	-1	/	i	5
O=C(NC(=S)Nc1ccc(S(=O)(=O)Nc2ncccn2)cc1)c1cccc(Br)c1	/	16	-2	1	13	-3	i	-3
Cc1ccc(S(=O)(=O)C(C#N)c2nc3ccccc3nc2N2CCN(C)CC2)cc1C (stereo not given)	-8	119*	-20	-10	122*	-3	i	17	eIF4H inh retest=99*;PABP polyA inh retest=97*
O=C(O)C1CCCCC1C(=O)Nc1ccccc1C(=O)N1CCN(c2ccc(F)cc2)CC1 (stereo not given)	-1	-16	4	1	9	-15	i	-18
COc1ccc(Cl)cc1NC(=O)CN(C)C(=O)CN1C(=O)NC(C)(c2ccc3ccccc3c2)C1=O (stereo not given)	-7	/	9	1	/	/	/	10

Later entries.
SMILES	UUG fidelity	PABP polyA inh	MT1-MMP act inh	MT1-MMP act inh RFP	eIF4H inh	CSC inhib	Rce1 inh	HIV Env fusion	others
O=C(COC(=O)/C=C/c1ccc(OC(F)F)cc1)NCc1cccs1	-3	23	4	1	-12	-18	i	25
CCN1CCN(S(=O)(=O)c2ccc(Cl)c(C(=O)NCCc3ccccc3)c2)CC1	/	/	1	3	/	-6	i	-30
CCCN1C(=O)c2cc(C(=O)NCc3ccc(OC)cc3)ccc2C1O (stereo not given)	2	-7	0	2	-4	-1	i	3
CCOC(=O)C1=CN(Cc2cccc(Br)c2)S(=O)(=O)N(CC)C1C (stereo not given)	-13	/	-2	-4	/	/	/	14
Cc1ccc(-c2[nH]nc3c2C(c2cccnc2)C(C#N)=C(N)O3)cc1 (stereo not given)	-21	4	-5	-2	-4	-14	i	24
CC[C@]12c3[nH]c4ccc(Cl)cc4c3CCN1C(=O)[C@@H](CC(=O)NCCCN(C)C)C[C@@H]2C(=O)N1CCN(C(=O)c2ccco2)CC1	-7	/	1	6	/	/	/	11
Cc1cc(C)cc(NC(=O)COc2ccc(C(=S)N3CCOCC3)cc2)c1	/	14	3	-1	-11	6	i	1
Cc1ccc(NS(=O)(=O)c2ccc3c(c2)OCCCO3)cc1S(=O)(=O)N1CCOCC1	4	/	4	-3	/	/	/	5
CC(Sc1ccccc1)C(=O)NNC(=O)c1ccncc1 (stereo not given)	/	/	-2	3	/	25	i	3
O=C(CNC(=O)c1ccccc1F)Nc1ccccc1C(F)(F)F	-17	-10	7	3	1	-11	i	-3
COc1ccc(C(=O)Oc2cc(/C=N/NS(=O)(=O)c3ccccc3)ccc2OC)cc1	1	-8	2	-4	-3	-6	i	/
CCn1c(SCC(=O)NC(=O)NCc2ccco2)nc2sc(C)c(C)c2c1=O	-14	50*	-7	-2	82*	1	i	/
CC1=NN(C(N)=S)C(=O)C1N=Nc1ccccc1Cl (stereo not given)	-25	13	0	-2	12	-5	i	-18
COc1ccc(-c2cc(=O)c(C(=O)c3ccc(C)cc3)n[nH]2)cc1	/	10	3	5	-5	-4	i	-22
CN(CC(=O)Nc1cccc(Cl)c1)S(=O)(=O)c1ccc2[nH]c(=O)oc2c1	-23	12	-1	2	19	-16	i	-1
Cc1cccc2cc(COC(=O)COc3ccccc3)c(=O)[nH]c12	-15	10	0	10	10	14	i	/
O=C(c1ccc2c(c1)OCO2)N(CC1CCCO1)C1(C(=O)NC2CCCC2)CCCCC1 (stereo not given)	-4	0	-2	-1	-4	15	i	41
O=C(OCC(=O)N1CCc2ccccc21)c1nc(Cl)ccc1Cl	/	3	-2	1	7	-7	i	19
O=C(Nc1cccc(-c2nnco2)c1)c1cccs1	/	6	-2	1	-8	13	i	-16
CCOC(=O)C1(CCOc2ccccc2)CCN(Cc2cnc(C)[nH]2)CC1	/	-4	-5	-8	-12	-7	i	8
Cc1c(Cc2ccccc2)c(=O)oc2cc(OCC(=O)N3CCC(C(N)=O)CC3)ccc12	-12	-5	-1	-9	-6	-6	i	/
COc1cccc(N2CC(C(=O)Oc3ccc4ccccc4c3)CC2=O)c1 (stereo not given)	-7	0	3	3	5	-3	i	9
CC(=O)NC(CC(=O)NCC(c1ccco1)N(C)C)c1ccccc1 (stereo not given)	-16	2	-1	2	8	-16	i	3
CCNC(=O)NC(=O)C(C)Sc1nc2cc(C(=O)OC)ccc2c(=O)n1-c1ccccc1 (stereo not given)	4	-4	-4	-1	0	-11	i	/
CCCC(=O)Nc1c(-c2cccs2)c(=O)c2ccccc2n1C	-11	4	1	3	-13	-11	i	21

3 records picked at random from those above, as already listed:
SMILES	UUG fidelity	PABP polyA inh	MT1-MMP act inh	MT1-MMP act inh RFP	eIF4H inh	CSC inhib	Rce1 inh	HIV Env fusion	others
O=C(CNC(=O)c1ccccc1F)Nc1ccccc1C(F)(F)F	-17	-10	7	3	1	-11	i	-3
CC(Sc1ccccc1)C(=O)NNC(=O)c1ccncc1 (stereo not given)	/	/	-2	3	/	25	i	3
COc1cccc(N2CC(C(=O)Oc3ccc4ccccc4c3)CC2=O)c1 (stereo not given)	-7	0	3	3	5	-3	i	9

Continued.
SMILES	UUG fidelity	PABP polyA inh	MT1-MMP act inh	MT1-MMP act inh RFP	eIF4H inh	CSC inhib	Rce1 inh	HIV Env fusion	others
COc1cccc(Sc2ccccc2/C=N/NC(N)=O)c1	/	5	0	-3	2	49	i	-46
CCc1cccc(CC)c1NC(=S)N1CCn2cccc2C1c1cccnc1 (stereo not given)	/	10	-3	-1	7	-11	i	-28
CC(=O)N1CCc2ccc(S(=O)(=O)N3CCc4ccccc43)cc21	/	10	2	-17	5	5	i	29
Cc1cccc(NC(=O)COC(=O)c2ccc(S(=O)(=O)N3CCCCCC3)cc2)c1	-11	/	0	4	/	/	/	-26
O=C(C1CCN(Cc2nc(Cc3cccc(F)c3)no2)CC1)N1CCOCC1	/	-2	-3	-1	1	-11	i	13
Cc1cc(=O)[nH]c(N/N=C/c2ccc([N+](=O)[O-])cc2)n1	/	-10	/	/	-1	-8	i	/

Only part of the results is shown (hit frequency here may not be typical).
